Assay outcomes from PubChem BioAssay.
NPYLR7 agonist = activates Aedes aegypti NPYLR7 receptor; HEK293T NPYLR7/Galpha15, GCaMP6s calcium fluorescence; activation, % at 10 µM; 270,000 tested, 0.15% active; in the data active = activation above about 40%;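 also: 0% = vehicle and 100% = reference agonist at the receptor; some compounds past the cut are filed as inactive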
NPYLR7 agonist max-min = recorded beside NPYLR7 agonist, whose call it bears; activation, %; measured here: Max-Min RFU normalised activation; some inactives read as strong as hits;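 span of the calcium signal over five minutes; 0% = vehicle and 100% = native peptide agonist; compound fluorescence can raise it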
The depositor's hits bear a star; & = joins results of further samples. These rows are one share of the data; count on the stated rates, not on these rows.

SMILES	NPYLR7 agonist	NPYLR7 agonist max-min
CC(Oc1ccc(-c2nnco2)cc1)C(=O)NC1CCCCC1 (centres undefined)	0.6	-2.0
CCOc1cc(/C=c2\sc3nc4cc(Br)cnc4n3c2=O)ccc1O	5.4	-4.1
CC(C)CN1CC(C(=O)NCc2cnn3ccccc23)CC1=O (centres undefined)	-3.4	-4.6
CCCCN(C=O)c1c(CC)nc2c(OCc3ccccc3C(=O)OC)cccn12	4.0	8.3
NC(=O)OCC(COC(N)=O)c1ccccc1	-6.6&-1.1	-9.1&-31.8
CC(C)c1nnc(SCc2ccc(CSc3nnc(C(C)C)n3N)cc2)n1N	-19.1	-27.7
CC(=O)Oc1c(-c2ccc(N)cc2)c(C2CC2)nn1-c1ccc(C)cc1	20.4	21.9
C[C@]12CCC3c4ccc(O)cc4CCC3C1CCC2=O (some centres undefined)	-4.1	-10.9
COc1ccccc1-c1ccc2c(c1)COCC(=O)N2CC1CC1	9.5	2.7
O=C(c1cccc2ccccc12)c1nc2c(n1O)CCCC2	19.1	8.4
CC1CCCN(C(=O)Cn2cc(C(F)(F)F)ccc2=O)C1 (centres undefined)	15.9	17.5
COC(=O)N1CCc2c(sc(NC(=O)c3nc4ccccc4s3)c2C(N)=O)C1	7.8	2.3
O=C(NCc1ccccc1)c1cn(Cc2ccccc2)nc1OCc1ccccc1	8.8	0.4
CCOC(=O)c1nc2cc(Cl)c(Cl)cc2nc1N1CCN(C(=O)c2ccccc2C(F)(F)F)CC1	6.7	3.2
CC(=O)C1=C(c2ccc(F)cc2)N(C(C)=O)n2c(nnc2C2CCCCC2)S1	8.9	6.5
CCCCn1cc(S(=O)(=O)c2ccc(F)cc2)c(=O)c2cc(Cl)ccc21	-5.6	-10.8
COc1cccc(Nc2c(C(N)=O)cnc3c(C)cc(S(=O)(=O)c4cccc(C(=O)N(C)C)c4)cc23)c1	17.0	-1.1
CCN(CC)c1onc(-c2ccc(F)cc2)c1CN(Cc1ccco1)C(=O)COC	3.9	6.4
CCc1nn(C(CC)C(=O)NC(C)C)c(=O)c2cc3oc(C)cc3n12 (centres undefined)	0.2	1.1
Cc1ccccc1C(C)NC(=O)C1CC(=O)N(C2CC2)C1 (centres undefined)	-0.8	-1.2
CC(=O)N(C)c1ccc(S(=O)(=O)N(C)c2ccc(CF)cc2)cc1	0.0	-1.5
CCCc1ccccc1N1C(=O)CSC1c1cccc(NC(=O)C(C)(C)CCl)c1 (centres undefined)	12.8	16.6
O=C(c1cc(Cl)ccc1[N+](=O)[O-])N1CCN(c2ccc(F)cc2)CC1	2.8	1.8
CS(=O)(=O)N1CCCN(c2nccc(N3CCCC(O)C3)n2)CC1 (centres undefined)	-3.1	-5.3
O=[N+]([O-])c1ccc(NCc2ccccc2)nc1	1.2	2.4
The list goes on.
SMILES	NPYLR7 agonist	NPYLR7 agonist max-min
COc1ccc(OCC(O)CN(Cc2cccn2Cc2ccccc2C)CC2CCCCC2)cc1 (centres undefined)	5.1	15.8
CCOC(=O)c1ccc2c(c1)nc(SCc1ccc(Br)cc1)n2Cc1ccco1	-7.9	-13.8
Cc1cccc(OCCN(C)C(=O)COc2ccc3ccc(=O)oc3c2)c1	-0.7	-2.6
COC(=O)c1ccc(NC(=O)c2cc(=O)c(OCc3ccc(F)cc3)c[nH]2)cc1	2.9	1.9
CC(N)=NCCCC[C@@H](N)C(=O)O	4.3	-29.9
O=C(c1cccs1)N1CCCC(OCc2ccccc2Cl)C1 (centres undefined)	-12.5	-6.4
COc1ccc(C)cc1S(=O)(=O)N1CCN(c2ccc(C)c(Cl)c2)CC1	4.5	-0.4
Cc1nc(C2CC2)ncc1C(=O)N(C)CC1(CO)CCCC1	2.8	0.9
O=C1C=CC(=O)c2c1ccc1c2ccc2ccccc21	-3.6	-9.0
Clc1ccc2nc(CSc3nc4ccccc4s3)cn2c1	-4.4	-13.1
O=C1C(N2CCOC(c3ccc(F)c(F)c3)C2)CCN1c1ccccc1F (centres undefined)	0.0	6.4
CCOC(=O)C1=C(Nc2c(C)cccc2C)CCCC1	-1.8	-2.7
CCCCC(O)CN(Cc1ccco1)Cc1c(C)nn(-c2ccccc2)c1Oc1ccc(F)cc1F (centres undefined)	8.2	7.7
CCN(CC)C1CCN(C(=O)c2cnn(-c3ncc4c(n3)-c3ccccc3SC4)c2C)C1 (centres undefined)	2.8	-0.2
CC(C)N1CCN(C(=O)CCNc2nccc(CCC(F)(F)F)n2)CC1	2.2	3.4
Cc1cc(S(=O)(=O)N(C)Cc2ccno2)ccc1Br	17.7	13.4
CC(Cn1cncn1)n1ccnc1-c1cc2ccccc2[nH]c1=O (centres undefined)	-4.5	-8.4
CNC(=O)CN1C(=O)NC2(CCC(C)CC2)C1=O (centres undefined)	1.4	-2.1
CN(Cc1ccccn1)c1nc2nonc2nc1NC1CCCC1	19.3	8.5
Cc1cccc(CN(Cc2nc(C(=O)N3CCOCC3)co2)C(C)C(C)C)c1 (centres undefined)	1.8	-8.6
COc1cc(C(C2Sc3ncnn3C2=O)N2CCC(C)CC2)cc(OC)c1OC (centres undefined)	1.9	2.2
COCC1(NC(=O)C(=O)Nc2ccc(C)cc2)CCCC1	9.5	7.8
COc1ccccc1Oc1ncccc1CNC(=O)c1ccc[nH]1	12.5	9.2
CN1CCN(C(CNC(=O)C(=O)Nc2cccc([N+](=O)[O-])c2)c2ccc(F)cc2)CC1 (centres undefined)	13.0	8.5
O=C(Nc1ccccc1F)C1CCN(C(=O)Nc2ccccc2)CC1	5.9	5.8
Continued:
SMILES	NPYLR7 agonist	NPYLR7 agonist max-min
COc1ccc(C(N)c2csc(Nc3nncc4ccccc34)n2)cc1 (centres undefined)	-8.3	-11.3
O=C(CCN=C1NS(=O)(=O)c2ccccc21)NCc1nnc2ccccn12	-1.0	6.1
Cc1nc2scc(C)n2c(=O)c1NC(=O)c1ccccc1C(F)(F)F	14.5	0.1
COCCn1cncc1CN1CCOC(CC2CCCCC2)C1 (centres undefined)	6.1	-3.0
CCOC(=O)c1nn(-c2ccccc2)c(=O)c2c(NC(=O)c3ccc(Br)o3)scc12	1.4	1.0
Cc1nonc1CN(C)Cc1nc(-c2cc(F)cc(F)c2)oc1C	11.4	-0.4
CCC(C)NC(=O)c1ccc(CSc2nnc(-c3ccc([N+](=O)[O-])cc3)n2Cc2ccccc2)cc1 (centres undefined)	1.2	7.6
COc1ccc(OC)c(CN2CCN(Cc3nc4scc(-c5ccccc5)c4c(=O)[nH]3)CC2)c1	8.2	9.3
CCOC(=O)N1CCN(C(=O)CC(c2cccc(OC)c2)c2cn(CC)c3ccccc23)CC1 (centres undefined)	3.8	9.7
CCCCSc1nc2c(c(=O)[nH]1)C(c1cccc(F)c1)C(C(=O)OC(C)C)C(C)=N2 (centres undefined)	-3.9	-8.5
Cc1ccc2c(c1)C1(SCCN1C(=O)NC1CCCCC1)C(=O)N2Cc1ccccc1 (centres undefined)	13.3	12.0
COc1cccc(Cn2c(=O)c(C(=O)O)nn(-c3ccccc3F)c2=O)c1	13.8	26.1
CCC(NC(=O)Cc1ccc(C)nc1)c1ncc(-c2ccccc2)[nH]1 (centres undefined)	3.2	3.0
CCN(CC)CCCNC(=O)c1cc(N2CCN(Cc3ccccc3)CC2)nc2ccccc12	5.7	0.7
COc1ccccc1OCCNC(=O)c1cc(C)oc1C	0.6	-0.1
O=C(Cn1nc2ccccn2c1=O)N(Cc1ccccc1)C1CC1	2.2	4.9
CCCCCCCC(=O)N1CCN(c2nc(CN(C)C)nc3sc4c(c23)CCCC4)CC1	-14.4	-9.2
CCOC(=O)C1=C(C)N(CC)C(=S)NC1c1ccc(NC(=O)Nc2cccc(Br)c2)cc1 (centres undefined)	7.8	17.8
COc1ccc(NC(=O)CSc2nnc(Cc3ccc(C)cc3)c(=O)[nH]2)cc1	-3.1	-3.7
COc1ccc(-c2[nH]ncc2CN[C@H]2CCCCNC2=O)cc1F	0.9	-1.1
O=C(CSc1nc(=O)n(CCN2CCOCC2)c2c1CCC2)Nc1nccs1	1.8	-1.9
CCOC(=O)C1=C(O)/C(=C\c2cccc(OCC)c2O)SC1=Nc1ccc(Cl)cc1	-2.0	1.0
O=C(c1cccnc1Oc1ccccc1)N(Cc1ccco1)Cc1cc2c(cc1Cl)OCO2	-6.0	-13.7
Cc1cccc(C(C)C)c1NC(=O)CN(C)CCc1cn[nH]c1	14.1	-0.5
Cc1csc(C(C)N(C)C(=O)Cn2nnnc2CN2CCC(C)CC2)n1 (centres undefined)	2.2	2.3

Individual results from the list.
CCCCN(C=O)c1c(CC)nc2c(OCc3ccccc3C(=O)OC)cccn12 | NPYLR7 agonist = 4.0
CN(Cc1ccccn1)c1nc2nonc2nc1NC1CCCC1 | NPYLR7 agonist max-min = 8.5
CC(C)c1nnc(SCc2ccc(CSc3nnc(C(C)C)n3N)cc2)n1N | NPYLR7 agonist = -19.1
CCCCSc1nc2c(c(=O)[nH]1)C(c1cccc(F)c1)C(C(=O)OC(C)C)C(C)=N2 (centres undefined) | NPYLR7 agonist max-min = -8.5
CC(N)=NCCCC[C@@H](N)C(=O)O | NPYLR7 agonist max-min = -29.9
O=C(c1cccc2ccccc12)c1nc2c(n1O)CCCC2 | NPYLR7 agonist max-min = 8.4

(listing goes on)
SMILES	NPYLR7 agonist	NPYLR7 agonist max-min
N#CCOc1ccc(NS(=O)(=O)c2ccc(F)cc2)cc1	5.3	5.5
COc1ccc(S(=O)(=O)N(CC(=O)N2CCc3sccc3C2COc2ccccc2C)C2CC2)cc1 (centres undefined)	-1.9	-0.4
CN(C(=O)CCN1CCCCCC1=O)C1CCCN(C2Cc3ccccc3C2)C1 (centres undefined)	-1.8	-6.8
C=CCN(Cc1nc(-c2ccccc2)no1)C(=O)CC1CNCCO1 (centres undefined)	-1.3	0.1
Cc1ccccc1C(=O)N1C(C(=O)NCc2ccccn2)COC12CCN(C(=O)c1ccccc1Cl)CC2 (centres undefined)	3.0	17.1
CCC(C(=O)NC(C)c1nnc(SCc2ccccc2C)n1-c1ccc([N+](=O)[O-])cc1)c1ccccc1 (centres undefined)	16.1	17.9
CC(C)N1CC(NC(=O)NCc2ccc(OCC3CC3)nc2)CC1=O (centres undefined)	3.1	0.6
C/C(=N\NC(=O)c1cccnc1)c1ccccc1OCC(N)=O	7.5	7.4
COC(=O)c1cc(-c2ccccc2)on1	6.1	5.7
O=C(COc1ccc(C=C2C(=O)c3ccccc3C2=O)cc1)Nc1ccc(F)cc1	6.7	10.9
O=C(NCCCN1CCOCC1)c1csc(CSc2nnc(-c3ccncc3)n2-c2cccc(Cl)c2)n1	13.4	16.4
CCC(C)N(Cc1csc(COc2cccc(C)c2)n1)C(=O)COC (centres undefined)	14.8	12.7
Cc1nc2cc3ccccc3cc2c(=O)n1-c1ccc2c(c1)NC(=O)C(C)O2 (centres undefined)	7.1	1.9
CC(=O)c1cccc(NC(=O)N2CCN(C(c3ccccc3)c3ccc(Cl)cc3)CC2)c1 (centres undefined)	20.6	28.2
Cc1cccc(C(=O)N2CCN(c3ccc(Oc4ccccc4)cc3)C(=O)C2C)c1 (centres undefined)	-6.5	0.7
Cc1ccc(-n2nnnc2SCC(=O)N(C)C)cc1	-2.2	-2.4
COc1ccc(-c2nc(-c3ccccc3)c(-c3ccccc3)n2CC(=O)NCCO)cc1	10.9	0.7
CCOc1cc(CN(CC)C(=O)COc2ccc(Cl)cc2Cl)ccc1O	13.4	7.2
CCN(CC)C(=O)C(NC(=O)c1cccs1)C1CCN(C(=O)c2ccc(OC)cc2)CC1 (centres undefined)	7.6	4.0
O=C(NCCc1cccc(Cl)c1)c1cccnc1Oc1cccc([N+](=O)[O-])c1	-14.5	-18.3
COc1cccc(C(=O)Nc2c3c(nn2-c2ccccc2C)CS(=O)(=O)C3)c1OC	-1.5	-1.6
Cc1ccccc1COc1coc(CN2CCc3ccccc3C2)cc1=O	-0.4	-0.7
Cc1c(C)c(C)c(C(=O)C2CCN(C(=O)C3CC(=O)OC3(C)C)CC2)c(C)c1C (centres undefined)	18.7	23.0
CN(Cc1nc2ccccc2n1CCOc1ccccc1)C(=O)c1ccco1	-2.0	3.9
CN1C(=O)c2ccc(C(=O)NCc3cc4cc(F)ccc4s3)cc2C1=O	13.7	10.5

The last three compounds of the part above open the next one.
SMILES	NPYLR7 agonist	NPYLR7 agonist max-min
Cc1c(C)c(C)c(C(=O)C2CCN(C(=O)C3CC(=O)OC3(C)C)CC2)c(C)c1C (centres undefined)	18.7	23.0
CN(Cc1nc2ccccc2n1CCOc1ccccc1)C(=O)c1ccco1	-2.0	3.9
CN1C(=O)c2ccc(C(=O)NCc3cc4cc(F)ccc4s3)cc2C1=O	13.7	10.5
CCOC(=O)Cn1c(C2CC(=O)N(c3cc(C)ccc3C)C2)nc2ccccc21 (centres undefined)	11.5	7.7
Cc1noc(C)c1S(=O)(=O)NCc1cccnc1N(C)Cc1ccccc1	13.2	1.4
CC(NC(=O)c1ccccc1N1CCC(NC(=O)c2ccc(Br)cc2)CC1)c1ccccc1 (centres undefined)	8.3	5.5
COc1cc2c(cc1OC)C(C(C)C)N(C(=O)c1ccccc1)CC2 (centres undefined)	16.3	4.5
CC(Sc1nc2sc3c(c2c(=O)[nH]1)CCCC3)C(=O)N1CCCC1 (centres undefined)	20.4	8.2
Cc1ccccc1OCC(=O)N1CCOC(COCc2ccccc2F)C1 (centres undefined)	-8.1	-13.0

Reformatted with bars between the fields: part of the list above.
smiles | NPYLR7 agonist | NPYLR7 agonist max-min
CC(NC(=O)c1ccccc1N1CCC(NC(=O)c2ccc(Br)cc2)CC1)c1ccccc1 (centres undefined) | 8.3 | 5.5
Cc1noc(C)c1S(=O)(=O)NCc1cccnc1N(C)Cc1ccccc1 | 13.2 | 1.4

Gathered by group: those above with a CF3 group.
SMILES	NPYLR7 agonist	NPYLR7 agonist max-min
CC1CCCN(C(=O)Cn2cc(C(F)(F)F)ccc2=O)C1 (centres undefined)	15.9	17.5
CCOC(=O)c1nc2cc(Cl)c(Cl)cc2nc1N1CCN(C(=O)c2ccccc2C(F)(F)F)CC1	6.7	3.2
CC(C)N1CCN(C(=O)CCNc2nccc(CCC(F)(F)F)n2)CC1	2.2	3.4
Cc1nc2scc(C)n2c(=O)c1NC(=O)c1ccccc1C(F)(F)F	14.5	0.1
